# KCNQ2 block – KCNQ2 channel blockers in CHO-K1 cells – cell-based, FluxOR thallium flux, B-score, primary screen (AID 2156) | 20 min; hits give low values; only compounds with negative scores are shown here; some inactives read as strong as hits | B-score at 10 µM | 310,000 tested, 1.1% active;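 active means fluorescence ratio B-score at most minus 3 library SDs, with starting brightness B-score within 2 library SDs, cut at about -5.5 in these data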
# Target sequence (O88943 whole entry, looked up): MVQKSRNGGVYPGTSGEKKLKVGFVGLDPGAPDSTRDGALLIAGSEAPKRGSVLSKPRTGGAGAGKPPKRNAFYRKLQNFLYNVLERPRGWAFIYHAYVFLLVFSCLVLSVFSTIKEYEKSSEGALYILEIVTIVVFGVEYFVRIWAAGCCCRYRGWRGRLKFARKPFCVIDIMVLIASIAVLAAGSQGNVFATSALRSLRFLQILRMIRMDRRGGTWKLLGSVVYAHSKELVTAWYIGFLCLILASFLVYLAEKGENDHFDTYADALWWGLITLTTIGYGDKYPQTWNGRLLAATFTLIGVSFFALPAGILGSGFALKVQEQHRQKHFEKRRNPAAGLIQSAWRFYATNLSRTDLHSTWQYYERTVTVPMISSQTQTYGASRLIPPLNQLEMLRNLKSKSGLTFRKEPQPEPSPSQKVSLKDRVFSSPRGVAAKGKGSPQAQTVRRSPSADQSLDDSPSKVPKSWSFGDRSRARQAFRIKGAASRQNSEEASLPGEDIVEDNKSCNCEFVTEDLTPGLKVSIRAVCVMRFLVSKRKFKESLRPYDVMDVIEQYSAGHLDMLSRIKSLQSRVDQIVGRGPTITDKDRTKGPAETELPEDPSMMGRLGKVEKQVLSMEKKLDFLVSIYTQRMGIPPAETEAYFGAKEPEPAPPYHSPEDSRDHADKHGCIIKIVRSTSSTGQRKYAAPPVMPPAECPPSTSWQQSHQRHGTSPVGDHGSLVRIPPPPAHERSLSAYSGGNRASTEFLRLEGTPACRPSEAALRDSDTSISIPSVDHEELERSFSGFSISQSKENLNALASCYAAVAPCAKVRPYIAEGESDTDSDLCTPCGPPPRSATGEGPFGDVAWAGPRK
# KCNQ2 block baseline – recorded beside KCNQ2 block, whose call it bears; B-score; measured here: initial fluorescence intensity artifact check;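 brightness before thallium and not channel activity; 0 = typical well and far values either way flag optical interference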
# * = called active by the depositor; i = inactive. A portion of the library; the hit share may differ from the screen's.
KCNQ2 block | KCNQ2 block baseline | SMILES
i | -0.68 | COc1ccc(NC(=O)CSc2nnc(CNC(=O)c3cccs3)o2)c(OC)c1
i | -0.03 | CCOC(=O)C1CCN(C(=O)CCS(=O)(=O)c2ccc3c(c2)CCN3C(=O)CC)CC1
i | 3.4 | CCC(=O)Nc1cccc(C2=NOC3(C2)C[C@@H](C(N)=O)N(C(=O)c2cc([N+](=O)[O-])cc([N+](=O)[O-])c2C)C3)c1 (stereo not given in full)
i | -1.3 | O=C(/C=C/c1ccccc1)N/C(=C/c1ccccc1)C(=O)N1CCOCC1
i | -1.4 | COc1cc(OC)c(C2NC(=O)CCC2[N+](=O)[O-])cc1OC (stereo not given)
i | -0.19 | Cc1nc2ccccc2c(=O)n1NC(=O)c1cccnc1Cl
i | -0.78 | COc1ccc(Br)cc1CNc1ccccc1
i | -1.1 | CCCCCCOC(=O)c1ccc(NC(=O)c2cc(OC)c(OC)c(OC)c2Br)cc1
i | 0.11 | CC(C)CCNC(=O)c1cc(S(=O)(=O)N2CCc3ccccc32)cn1C
i | -0.35 | COc1cc2oc3ccccc3c2cc1N(CC(=O)N(C)C)S(=O)(=O)c1ccccc1
i | 0.04 | O=C(N/N=C/c1ccncc1)c1cc2ccccc2cc1O
i | 0.63 | Cc1oc2nc(SCC(=O)Nc3ccc(S(N)(=O)=O)cc3)nc(NC(=O)c3ccccc3)c2c1C
i | -0.03 | Cc1c(C)c2cc(Cl)c(O)c(CN3CCCC(C)C3)c2oc1=O (stereo not given)
i | 0.04 | CC1CCCN(c2ccc([N+](=O)[O-])cc2C(=O)c2ccccc2)C1 (stereo not given)
i | -1.6 | Cc1cccn2c(=O)c(/C=C(\C#N)S(=O)(=O)c3ccc(Cl)cc3)c(N3CCC(C(N)=O)CC3)nc12
i | -1.9 | COc1ccc2c(c1)CCc1c-2n[nH]c1C(=O)NCCC(C)C
i | -1.2 | CCCCn1nc2cc(C(=O)NCc3ccc(OC)cc3)ccc2c1OCC
i | 0.6 | Cc1nn(Cc2cccc(C(=O)Nc3ccn(Cc4ccccc4)n3)c2)c(C)c1[N+](=O)[O-]
i | -1 | Cn1nccc1C(=O)N1CCCC(Nc2ccc(F)cc2)C1 (stereo not given)
i | -0.71 | CCOCCCNC(=O)CN1CCN(Cc2ccc(Cl)cc2)C1=O

# The final 5 compounds of the part above lead into the next:
KCNQ2 block | KCNQ2 block baseline | SMILES
i | -1.9 | COc1ccc2c(c1)CCc1c-2n[nH]c1C(=O)NCCC(C)C
i | -1.2 | CCCCn1nc2cc(C(=O)NCc3ccc(OC)cc3)ccc2c1OCC
i | 0.6 | Cc1nn(Cc2cccc(C(=O)Nc3ccn(Cc4ccccc4)n3)c2)c(C)c1[N+](=O)[O-]
i | -1 | Cn1nccc1C(=O)N1CCCC(Nc2ccc(F)cc2)C1 (stereo not given)
i | -0.71 | CCOCCCNC(=O)CN1CCN(Cc2ccc(Cl)cc2)C1=O
i | -1 | O=C(O)c1cccc(S(=O)(=O)N2CCCC(c3nc4c(nnn4Cc4ccccc4Cl)c(=O)[nH]3)C2)c1 (stereo not given)
i | -0.23 | CCC(C)N1CCN(C(=O)C2CCN(S(=O)(=O)c3c(C)noc3/C=C/c3ccco3)CC2)CC1 (stereo not given)
i | 0.19 | C=CCN(CC=C)S(=O)(=O)c1ccc(NC(=S)NC(=O)/C=C/c2ccc(C)cc2)cc1
i | 0.39 | CCOc1cc(N2CCOCC2)c(OCC)cc1NC(=O)Cc1ccccc1OC
i | -0.56 | CSCc1cc(N(C)c2ccccc2)nc(-c2ccccc2)n1
i | -1.9 | COc1ccc(Cl)cc1NC(=O)CN(C)C(=O)COc1ccccc1F
i | -0.23 | COCC(=O)Nc1ccc(OCc2ccccc2)cc1
i | 1.1 | COc1ccccc1-c1ccc(SCC(=O)NCCc2ccccc2)nn1
i | 0.35 | Cc1ccc(NC(=O)C2CCC(=O)N2C(=O)OCc2ccccc2)cc1 (stereo not given)
i | 0.38 | O=S(=O)(/N=C(/Nc1ccc(F)cc1F)c1ccccc1)c1ccccc1
i | 0.1 | C/C(=N/NC(=O)CNS(=O)(=O)c1ccccc1)c1ccc(Br)cc1
i | 0.64 | COCC(C)NC(=O)CSc1nc2ccccc2n1CCc1ccccc1 (stereo not given)
i | 2.9 | COc1ccccc1CNC(=O)c1ccc(NS(C)(=O)=O)cc1
i | -1.6 | COc1ccc2cc(C(c3nnnn3C3CCCCC3)N3CCCCCC3)c3nnnn3c2c1 (stereo not given)
i | 1 | CS(=O)(=O)c1ccc(C(=O)OCC(=O)N2CCCc3ccccc32)cc1
i | -0.01 | Nc1ccc(C(=O)n2c3ccccc3c3ccccc32)cc1
i | -1.3 | COc1ccc2c(=O)c(N3C(=O)c4ccccc4C3=O)coc2c1
i | 0.22 | CCOc1ccc(C(=O)NC(C(=O)NCCc2ccc(S(N)(=O)=O)cc2)C(C)C)cc1 (stereo not given)
i | -1.6 | COc1ccccc1N1CCN(C(=O)c2ccc(CS(=O)(=O)c3ccccc3OC)o2)CC1
i | 2.5 | Cc1cccc(C(=O)N(NC(=O)Oc2ccccc2)C(C)(C)C)c1

# Going on with the list.
KCNQ2 block | KCNQ2 block baseline | SMILES
i | -0.1 | O=C(CSc1nc2ccccc2c(=O)n1-c1ccccc1)N1CCc2ccccc2C1
i | -0.11 | CCCc1nnc(NC(=O)CCC(=O)N2CCCCC2CC)s1 (stereo not given)
i | 0.01 | CC(=O)Nc1ccc(C#Cc2ccc(NC(C)=O)cc2)cc1
i | 1.5 | COc1ccc(S(=O)(=O)N2CCc3ccccc32)cc1C(=O)OCc1nnc(-c2ccccc2)o1
i | 0.7 | CCOc1ccccc1CN1C(=O)C2(OCCO2)c2ccccc21
i | 0.94 | COCCn1c(CN2CC(C)CC(C)C2)nc2c1c(=O)n(C)c(=O)n2C (stereo not given)
i | 0.35 | CC(=O)Nc1ccccc1NC(=O)c1ccccc1-c1ccccc1
i | 1.6 | O=C(OCc1ccccc1)c1cc(S(=O)(=O)N2CCCCC2)ccc1N1CCOCC1
i | 0.6 | Cc1onc(-c2ccccc2)c1C(=O)Nc1cc(C(F)(F)F)ccc1N1CCOCC1
i | 0.83 | CCCc1cc(=O)oc2cc(C)cc(OCC(=O)NCCCn3ccnc3)c12
i | -0.87 | Cc1ccc(C(=O)NC(C(=O)Nc2cccc(S(N)(=O)=O)c2)C(C)C)cc1 (stereo not given)
i | 0.42 | COc1ccc(N2CCN(C(CNC(=O)C3CCCCC3)c3cccnc3)CC2)cc1 (stereo not given)
i | 0.86 | O=C(CN1C(=O)S/C(=C/c2ccncc2)C1=O)Nc1ccccc1
i | 1.4 | Cc1ccc(C)n1-n1c(C)nc2sc3c(c2c1=O)CCCCC3
i | 0.26 | Cc1ccc(N(C(=O)CNC(=O)c2ccco2)C(C(=O)NC2CCCCC2)c2cccnc2)c(C)c1 (stereo not given)
i | 0.33 | COCCCNC(=O)c1oc2ccc(S(=O)(=O)N3CCOCC3)cc2c1C
i | -0.03 | COc1ccc(F)cc1S(=O)(=O)NCC(c1ccco1)N1CCc2ccccc2C1 (stereo not given)
i | -0.08 | NNC(=S)Nc1cccc(Cl)c1
i | 0.58 | CC1CCN(C(c2nnnn2CCc2ccccc2)C(C)C)CC1 (stereo not given)
i | -0.83 | CCOc1ccc(Br)cc1S(=O)(=O)Nc1cccc(S(=O)(=O)N(C)c2ccccc2)c1

# Additional results:
KCNQ2 block | KCNQ2 block baseline | SMILES
i | 0.08 | CCn1c(SCC(=O)N/N=C/c2ccc(C)o2)nnc1-c1ccc(C)cc1
i | -0.56 | CCOC(=O)/C(C#N)=C1/SC(CC)C(=O)N1c1ccc(Br)cc1 (stereo not given)
i | 0.07 | CC1(C)C(=O)OC(c2ccc([N+](=O)[O-])cc2)C(C)(C)C1=O (stereo not given)
i | -0.2 | CC(C)C1Cc2c(C#N)c(N)n(C)c(=S)c2CO1 (stereo not given)
i | -0.37 | CCCCn1c(=O)[nH]c(=O)c2c1nc(-c1ccc(OC)c(Br)c1)n2CC(C)C
i | -0.04 | CCOc1ccc(N(CC(=O)N2CCN(c3ccccc3)CC2)S(=O)(=O)c2c(C)noc2C)cc1
i | 1.3 | N#Cc1ccc(S(=O)(=O)N2CCN(c3ncccn3)CC2)cc1
i | 2 | O=C(COc1ccc(C(=O)c2ccccc2)cc1)NCC(=O)Nc1ccccc1Br
i | 0.85 | CCOc1ccc(-n2c(=O)c3sccc3n(CC(=O)NCCc3ccc(OC)c(OC)c3)c2=O)cc1
i | -1.9 | COCCSc1nnc(NC(=O)Cc2ccc(OC)c(OC)c2)s1
i | 1.1 | CC(C)c1cc(C(=O)O)c2cnn(C(C)C)c2n1
i | -0.01 | CCC1=Nc2cc(C(=O)NCc3ccco3)ccc2Sc2ccccc21
i | 0.21 | CCOC(=O)c1c(NC(=O)CC2SC(N)=NC2=O)sc2c1CCCC2 (stereo not given)
i | 3.2 | N=C1/C(=C/c2ccc(-c3cccc(C(=O)O)c3)o2)C(=O)N=C2SC(CC(=O)N3CCOCC3)=NN12
i | 1.1 | O=C(O)c1ccccc1CSc1nc2ccccc2[nH]1
i | 0.19 | COc1ccc(NC(=O)CN2C(=O)NC(c3ccccc3)(c3ccccc3)C2=O)cc1OC
i | -2.5 | CCC(=O)OCCNc1cc(Sc2nccn2C)c2nonc2c1[N+](=O)[O-]
i | 0.04 | C/C=C(/C)C(=O)OC1Cc2c(ccc3ccc(=O)oc23)OC1(C)C (stereo not given)
i | -1.4 | COCCn1c(COc2ccc(C)cc2)nc2ccccc21
i | 0.18 | COc1cc(C)c(CN2CCC(Cc3ccccc3)CC2)cc1C

# Random excerpt: 4 records from the list, in no set order.
KCNQ2 block | KCNQ2 block baseline | SMILES
i | 0.18 | COc1cc(C)c(CN2CCC(Cc3ccccc3)CC2)cc1C
i | -0.56 | CCOC(=O)/C(C#N)=C1/SC(CC)C(=O)N1c1ccc(Br)cc1 (stereo not given)
i | 0.07 | CC1(C)C(=O)OC(c2ccc([N+](=O)[O-])cc2)C(C)(C)C1=O (stereo not given)
i | 0.19 | COc1ccc(NC(=O)CN2C(=O)NC(c3ccccc3)(c3ccccc3)C2=O)cc1OC

# Other results.
KCNQ2 block | KCNQ2 block baseline | SMILES
i | 4.2 | CCN1CCc2c(sc(N)c2C(N)=O)C1
i | 2.7 | CCCOC(=O)c1ccc(NC(=O)c2cn(CC)c3nc(C)ccc3c2=O)cc1
i | 1.4 | CCOc1ccc(N(CC(=O)NCCSc2ccccn2)S(C)(=O)=O)cc1
i | -0.34 | O=c1ccc(/C=C/c2ccccc2)nn1Cc1ccccc1
i | -0.08 | COc1cccc(-n2c(SCC(=O)NC3CCCCC3)nc3n[nH]c(C)c3c2=N)c1
i | -0.52 | CN(C)/N=C/c1ccc(P(c2ccc(/C=N/N(C)C)o2)c2ccc(/C=N/N(C)C)o2)o1
i | -0.35 | COc1ccc(-n2cnc3sc(-c4ccccc4)cc3c2=O)cc1
i | 0.07 | CCC1=NN(C(=O)CCc2ccccc2O)C(O)(C(F)(F)F)C1 (stereo not given)
i | -0.4 | CC1CCCC(NC(=O)CN2C(=O)c3cccnc3Oc3ccc(Cl)cc32)C1C (stereo not given)
i | 0.24 | COc1cc(C(=O)NC2=NCCS2)ccc1OCc1c(C)noc1C
i | -0.49 | CCOC(=O)CCc1c(C)c2ccc(OCC(=O)OC(C)C)cc2oc1=O
i | 1.7 | O=C(Nc1ccc(Br)cc1)c1cccc2c1C(=O)N(C1CCCCC1)C2
i | -2.6 | COc1ccc(OC)c(/C=C2\Oc3cc(OCC(=O)N4CCC[C@H]4C(=O)O)ccc3C2=O)c1
i | 1.2 | O=C(Nc1cccc(Cl)c1)c1ccc(F)c(S(=O)(=O)N2CCN(c3ccccn3)CC2)c1
i | -0.99 | Cc1cc(C)cc(NC(=S)Nc2ccc3cn[nH]c3c2)c1
i | 0.45 | Cc1cc([N+](=O)[O-])ccc1NC(=S)NC(=O)Cc1ccccc1
i | -1.7 | CC(=O)c1ccc(Oc2cc(C)nc(-n3nc(C)cc3C)n2)cc1
i | 0.17 | CC(C)CC(NC(=O)C1CCC(C)CC1)C(=O)NCc1ccccn1 (stereo not given)
i | -0.87 | Cn1c(=O)c2c3c(sc2n2cnnc12)CCC3
i | -1.8 | c1cc2c3c(cccc3c1)NC(c1ccc3c(c1)OCO3)N2

# (further entries)
KCNQ2 block | KCNQ2 block baseline | SMILES
i | -0.06 | COc1ccc(OCC(=O)Nc2ccc(NC(=O)c3cccs3)c(OC)c2)cc1
i | 0.21 | O=C(CSc1nnc(-c2ccccc2)c(-c2ccccc2)n1)N1CCOCC1
i | -1.5 | O=C1C(N2CCOCC2)=C(n2nnc3ccccc32)C(=O)c2ccccc21
i | -2 | O=C(Nc1nccs1)c1ccc(-c2ccc(Cl)cc2)o1
i | 0.63 | S=C1NCCc2ccc(Cl)cc2C1c1ccccc1Cl (stereo not given)
i | 0.26 | COc1cc(/C=C/C(=O)OCC(=O)Nc2cc(S(=O)(=O)N3CCCCC3)ccc2C)ccc1O
i | -1.4 | CSCCC(=O)N1CCN(CC(=O)N2CCCC2)CC1
i | -0.03 | O=P(CCCO)(Cc1ccccc1)Cc1ccccc1
i | -0.78 | Cc1cc(-c2nc(C)c(C(=O)NNS(=O)(=O)c3ccc(Cl)cc3Cl)s2)no1
i | 0.63 | CCOC(=O)C1CCCN(C(=O)c2cc(S(=O)(=O)Nc3ccccc3OC)ccc2C)C1 (stereo not given)
i | 0.01 | COc1cc2[nH]c(C(=O)N3CC(C)OC(C)C3)cc2c(OC)c1OC (stereo not given)
i | 0.56 | NC(N)=N/N=C/c1c(Cl)cccc1Cl
i | 1.3 | Cn1c(C(=O)N2CCN(c3ccc([N+](=O)[O-])cc3)CC2)cc2c(=O)[nH]c3ccccc3c21
i | 2.9 | COc1ccc(/C=C2\SC(=S)N(CCCC(=O)Nc3ccccc3C(=O)O)C2=O)cc1OC
i | 4.8 | Cc1ccc(CSC2=NCCN2S(=O)(=O)c2ccccc2)cc1

# As entered above:
# In KCNQ2 block baseline, NC(N)=N/N=C/c1c(Cl)cccc1Cl has the entry 0.56
# In KCNQ2 block baseline, COc1ccccc1-c1ccc(SCC(=O)NCCc2ccccc2)nn1 has the entry 1.1
